# High-throughput results as filed in PubChem BioAssay.
# fixLJ activator = increases Burkholderia fixLJ two-component signaling | B. multivorans fixK-promoter GFP reporter, 18 h; active compounds read high | z-score (concentration not given with the values) | 0.3% of 29,000 active | AID 1918990;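 active means replicate mean overnight rise in green fluorescent reporter signal, 3 or more SD over negative controls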;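 further: score is relative to vehicle wells of the plate; 300 nL library stock went into each well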
# Active calls of the source: *; & = joins results of further samples.
SMILES,fixLJ activator
COc1ccc(-c2cc(-c3ccccc3)c(C#N)c(SCC(O)CS(=O)(=O)Cc3ccc(Cl)cc3)n2)cc1 (configuration not stated),1.6
COc1ccc(-n2c(-c3ccco3)nc3c(cnn3-c3ccc(Cl)cc3)c2=O)cc1,0.24
O=C(/C=C/c1cn(CC(O)CN2CCCCCC2)c2ccccc12)c1ccc(Br)cc1 (configuration not stated),-11
c1cc2c(cc1CN1CCC3OCc4cnnn4C3C1)CCO2 (configuration not stated),0.75
CCOc1ccc(C(=O)c2cn(CC(=O)Nc3ccc4c(c3)OCCO4)c3ccc(F)cc3c2=O)cc1,-1.6
COc1cc2nc(N3CCC(O)(c4cccnc4)CC3)cc(C)c2cc1OC,-1.3
Cc1ccc2nc(C(C)NC(=O)C3CCN(C(=O)C4CCC4)CC3)[nH]c2c1 (configuration not stated),-1.6
Cc1ccc(CNC(=O)c2nc(SCc3ccc(C)cc3)ncc2Cl)cc1,-2.6
Cn1c(=O)c2c(-c3ccc(Cl)cc3)n(CCc3ccccc3)cc2n(C)c1=O,-0.88
Fc1ccc(-c2cn3cc(Cc4ccccc4Cl)sc3n2)cc1,-1.4
CC(C)c1cc(C(=O)N2CC3CCC2CN(Cc2cscn2)C3)n[nH]1 (configuration not stated),-1.7
COc1cccc(C(=O)Nc2ccccc2-c2nnc(-c3ccc(C(C)(C)C)cc3)o2)c1,-1.6
CCn1c2ccccc2c2cc(NC(=O)COc3ccc(C)cc3C)ccc21,-3.3
CC1CN(C(=O)Nc2ccc(C(=O)NCCc3ccccc3)cc2)c2ccccc2S1 (configuration not stated),-2
O=C(O)C(Cc1c[nH]c2ccccc12)n1cc(-c2nccs2)nn1 (configuration not stated),0.03
COc1ccc(-c2nc(CNS(=O)(=O)c3ccc(F)cc3)cs2)cc1,1.5
CCCC12CN3CC(C)(CN(C1)C3c1ccc(CC)cc1)C2=O (configuration not stated),-0.21
Cc1cc(C)n(NC(=O)Cc2ccc(-n3nnnc3C)cc2)c(=O)c1,0.56
O=C(CC1CN(Cc2ccccc2)CCO1)NCc1cccc2[nH]ccc12 (configuration not stated),0.01
COc1ccc(CCN2C(=O)c3[nH]nc(-c4ccccc4O)c3C2c2ccc(OC)cc2)cc1 (configuration not stated),-0.78
CCc1ccc(NC(=O)CC2C(=O)OCCN2CC)cc1 (configuration not stated),-0.23
Cc1cc(C)c(OCC(=O)N(Cc2ccco2)Cc2ccco2)c(C)c1,-1.1
CCCN1CCCC2(CCN(C(=O)CCCn3cncn3)C2)C1=O (configuration not stated),0.79
Cn1cc(C#N)cc1C(=O)N1CCC(CNC(=O)c2ccc(Cl)cc2F)CC1,-1.4
COCC1(N(C)C(=O)C2OCC(=O)N(C3CC3)C2c2ccc(OC)cc2)CC1 (configuration not stated),-0.8
CC(C)Cc1ccc(S(=O)(=O)Nc2ccc3[nH]c(=O)[nH]c3c2)cc1,0.52
CC(=O)Nc1c(C(=O)Nc2cccc(C)c2)nnn1-c1ccc(C)cc1,-0.43
Clc1ccc(OCc2nc(-c3ccc(-n4cccc4)cc3)no2)cc1,-1.5
Cc1ncn(CCNC(=O)C2CC(=O)N(Cc3ccncc3)C2)c1C (configuration not stated),-1.5
CN(C)c1ccc(NC(=O)CSc2nc(-c3ccco3)cc(C(F)(F)F)n2)cc1,-1.5
COc1ccc(-c2cc(C(F)(F)F)nc(SCC(=O)NCCc3ccccc3)n2)cc1,-0.19
CCCCCn1c(NCc2ccc(OC)cc2)nc2ccccc21,-0.9
COc1ccc(-n2ccnc2-c2cnsc2)cc1C(=O)N(C)C,0.35
O=C(Cn1ncc2c3ccccc3n(Cc3ccccc3)c2c1=O)NCc1ccccn1,-1.1
CNC(=O)C1CCC(CNC(=O)c2cccc(-c3cncc(OC)c3)c2)CC1 (configuration not stated),-0.28
CCOC(=O)c1ccc(NC(=O)C2=C(C)Nc3nc(SCc4ccc(Cl)cc4)nn3C2c2ccc(C)cc2)cc1 (configuration not stated),-1.8
COCC1C(NC(=O)CCn2cnc3ccccc32)C2CCOC21 (configuration not stated),-1.4
O=C(c1cccc(-c2ccn[nH]2)c1)N1CCN(c2nc3ccccc3s2)CC1,-1.7
COc1cc(NC(=O)c2cc(C)nc3c2c(C)nn3-c2ccccc2Cl)cc(OC)c1,-1.1
Cc1ccc2c(=O)cc(C(=O)Nc3cccc(Cl)c3C)oc2c1C,-0.67
CCOC(=O)c1ccc(Nc2nc3ccccc3nc2NS(=O)(=O)c2ccc(Cl)cc2)cc1,-0.04
CCOC(=O)c1ccc(-n2c(CCC(=O)O)ccc2-c2ccc(Br)cc2)cc1,-1.9
O=C(CC1NC(=O)c2ccccc21)NCCCn1nnc2ccccc21 (configuration not stated),0.69
CCc1cc(C(=O)N2CCC(c3nccn3Cc3ccncc3)CC2)n[nH]1,-1.2
COc1cc(C2CC(=O)Nc3cc4c(cc32)OCO4)cc(OC)c1O (configuration not stated),-0.3
Cc1cc(N2CCC(c3[nH]ncc3-c3ccccc3)CC2)nc(N)n1,0.16
CS(=O)(=O)N1CCOC(CNC(=O)c2ccc3c(c2)CCCO3)C1 (configuration not stated),0.06
COCCN1CC2(CCCN(C(=O)c3ccc(C)cc3O)C2)CCC1=O (configuration not stated),-2
Cc1ccc(NC(=O)c2ccc3snnc3c2)cc1C,-1.4
Cc1ccccc1CSCCNC(=O)CN(c1ccccc1)S(=O)(=O)N(C)C,-1.5
COc1ccc(C(=O)N2CCn3nc(C(O)c4nccn4C)cc3C2)cc1 (configuration not stated),0.08
COc1ccc(-c2nc(Cn3c(SCc4cccc(Cl)c4)nc4ccncc43)c(C)o2)cc1,-0.47
Cc1[nH]c2ccccc2c1C1(O)C(=O)N(Cc2ccccc2Cl)c2ccccc21 (configuration not stated),0.13
Cc1ccc(CNC(=O)CCc2c(C)c3ccc(O)c(C)c3oc2=O)cc1,-2
Cc1c(NC(=O)c2ccc(Cl)cc2)cc(C(C)C)c(O)c1S(=O)(=O)c1ccc(Cl)cc1,-1.4
Cc1cc(C)c2[nH]c(C)c(CC(=O)N(C)CCc3cnn(C)c3)c2c1,-0.65
O=C(Nc1ccc(Cl)cc1)N1CCN(c2ccc3nnc(-c4ccccc4)n3n2)CC1,0.87
O=C(CC1C(=O)N(c2ccc(F)cc2)C(=O)N1Cc1ccc2c(c1)OCO2)Nc1ccc(F)cc1 (configuration not stated),-0.58
CCCCN(C)CCNC(=O)C1CCCN(S(=O)(=O)c2ccc3c(c2)oc(=O)n3C)C1 (configuration not stated),-1.4
C/C=C(/C(=C/C)c1ccc(O)cc1)c1ccc(O)cc1,-0.18

# Additional entries:
SMILES,fixLJ activator
Cc1ccc(C)c(NC(=O)CC(=O)N(C)C(C)c2ccncn2)c1 (configuration not stated),-1.1
COc1cccc(C2CCN2C(=O)c2cccc(-c3nc(C)n(C)n3)c2)c1 (configuration not stated),0.03
COc1cccc(-c2noc(COc3ccccc3Cl)n2)c1,-0.56
CCn1nc(C)cc1C(=O)NC1COCC1Cc1ccncc1 (configuration not stated),0.03
Cc1ccc(NC(=O)Cn2cc(S(=O)(=O)N3CCN(c4ccccc4F)CC3)c3ccccc3c2=O)cc1F,-1.1
CC1=C(C(=O)Nc2ccc(C)cc2Cl)C2(CCCCC2)OC1=O,-1.9
O=C(Nc1ccc(F)c(Cl)c1)N1CCC2(CC1)Oc1ccccc1C(=O)N2Cc1ccccc1F,-0.2
Cc1ccc(-c2nnc(SCc3cccc(C#N)c3)o2)cc1,-1.4
NCC(O)CC(=O)N1CCC2(CC1)CC(=O)N(Cc1ccc(Cl)cc1)C2 (configuration not stated),0.31
COc1ccc(CCNc2oc(COc3ccc(Cl)cc3)nc2C#N)cc1OC,-0.32
COc1ccccc1N(CC(=O)NCCSCc1ccccc1)S(C)(=O)=O,0.03
O=C1OC2CN(c3nnnn3-c3ccccc3)CC2N1Cc1ccccn1 (configuration not stated),-0.55
CC(C)Cc1cc(C(=O)NCC2CN(S(C)(=O)=O)CCO2)no1 (configuration not stated),-3.9
CC(=O)NCc1cc2n(n1)CCN(Cc1[nH]cc(C)c(=O)c1C)C2,0.08
CCc1cccc(C)c1NC(=O)C(NS(=O)(=O)c1ccc2c(c1)CCC(=O)N2)c1ccccc1 (configuration not stated),-1.4
O=C(NCCCN1CCN(c2ccc(F)cc2)CC1)Nc1ccccc1Cl,-1.2
Cn1cncc1C(=O)N1CCCN(Cc2cnc(-c3ccccn3)nc2)CC1,0.29
COc1ccccc1Cn1cc(C(=O)c2ccc(C)cc2)c(=O)c2cc(F)cc(F)c21,-0.6
Cc1cc(C)cc(NC(=O)CSc2oc(-c3ccccc3)nc2S(=O)(=O)c2ccc(Cl)cc2)c1,-1.7
CCn1c(CNC(=O)c2ccc(OC)cc2)nnc1SCC(=O)Nc1cc(C)ccc1C,-0.23
Cc1nc(NCCc2noc(C3CCCO3)n2)c2cccnc2n1 (configuration not stated),0.32
COc1cccc(-c2[nH]ncc2C(=O)N(C)CCc2cn[nH]c2)c1,0.13
O=C1c2[nH]nc(-c3ccccc3O)c2C(c2cccc(OCc3ccccc3)c2)N1CCCO (configuration not stated),-0.68
COc1cc(CNCCSc2nnnn2C)ccc1OCc1ccc(F)cc1,0.41

# Ordered by molar mass (descending): some entries from above
SMILES,fixLJ activator
Cc1ccc(NC(=O)Cn2cc(S(=O)(=O)N3CCN(c4ccccc4F)CC3)c3ccccc3c2=O)cc1F,-1.1
O=C(Nc1ccc(F)c(Cl)c1)N1CCC2(CC1)Oc1ccccc1C(=O)N2Cc1ccccc1F,-0.2
CCc1cccc(C)c1NC(=O)C(NS(=O)(=O)c1ccc2c(c1)CCC(=O)N2)c1ccccc1 (configuration not stated),-1.4
O=C1c2[nH]nc(-c3ccccc3O)c2C(c2cccc(OCc3ccccc3)c2)N1CCCO (configuration not stated),-0.68
CCn1c(CNC(=O)c2ccc(OC)cc2)nnc1SCC(=O)Nc1cc(C)ccc1C,-0.23
COc1ccccc1Cn1cc(C(=O)c2ccc(C)cc2)c(=O)c2cc(F)cc(F)c21,-0.6
COc1ccc(CCNc2oc(COc3ccc(Cl)cc3)nc2C#N)cc1OC,-0.32
COc1ccccc1N(CC(=O)NCCSCc1ccccc1)S(C)(=O)=O,0.03
COc1cc(CNCCSc2nnnn2C)ccc1OCc1ccc(F)cc1,0.41
O=C(NCCCN1CCN(c2ccc(F)cc2)CC1)Nc1ccccc1Cl,-1.2
NCC(O)CC(=O)N1CCC2(CC1)CC(=O)N(Cc1ccc(Cl)cc1)C2 (configuration not stated),0.31
Cn1cncc1C(=O)N1CCCN(Cc2cnc(-c3ccccn3)nc2)CC1,0.29
CC(C)Cc1cc(C(=O)NCC2CN(S(C)(=O)=O)CCO2)no1 (configuration not stated),-3.9
CC1=C(C(=O)Nc2ccc(C)cc2Cl)C2(CCCCC2)OC1=O,-1.9
Cc1nc(NCCc2noc(C3CCCO3)n2)c2cccnc2n1 (configuration not stated),0.32
COc1cccc(-c2[nH]ncc2C(=O)N(C)CCc2cn[nH]c2)c1,0.13
COc1cccc(-c2noc(COc3ccccc3Cl)n2)c1,-0.56
CCn1nc(C)cc1C(=O)NC1COCC1Cc1ccncc1 (configuration not stated),0.03
Cc1ccc(-c2nnc(SCc3cccc(C#N)c3)o2)cc1,-1.4

# Additional records.
SMILES,fixLJ activator
CC1=C(C(=O)N2CCCCC2)C(c2ccc(Cl)cc2)n2c(nc3ccccc32)N1 (configuration not stated),0.51
Cc1nc(C(C)NC(=O)c2ccc(S(=O)(=O)NC3CC3)cc2)n[nH]1 (configuration not stated),-1.8
COc1ccc(C(=O)N2CC(=O)Nc3ccc(C)cc3C2c2ccccc2)cc1OC (configuration not stated),-1
COc1ccccc1C(=O)NCCn1cc(SCC(=O)Nc2ccccc2F)c2ccccc21,0.56
Cc1ccc(Oc2coc3cc(OCC(=O)NC4CCCCC4)ccc3c2=O)cc1,-1.3
COc1ccc(S(=O)(=O)N(C(=O)c2ccncc2)c2ccc3oc(C)c(C(C)=O)c3c2)cc1,-1.1
CCCS(=O)(=O)Nc1cc(-c2cn3ccc(C)cc3n2)ccc1C,1.8
Cc1ccc(NC(=O)CN(C)C)c(NC(=O)CNC(=O)c2ccccc2)c1,-2.7
CCOC(=O)c1ccc(N2C(=O)c3n[nH]c(-c4ccco4)c3C2c2ccc(OC)cc2OC)cc1 (configuration not stated),-0.89
CCOc1cccc(C2c3c(oc4ccc(F)cc4c3=O)C(=O)N2c2cc(C)ccn2)c1 (configuration not stated),-1.3
COc1cccc(-c2nc(SCC(=O)NC3CCCC3)c(-c3ccccc3)[nH]2)c1,-1.3
COc1ccc(NC(=O)c2ccco2)cc1NC(=O)COc1cc(C)cc(C)c1,-3
Cc1nn(C)c2nc(-c3ccccn3)nc(N3CCCN(C(C)C)CC3)c12,-0.42
COc1cccc(C(=O)Nc2cccc(NC(=O)c3ccc(Cl)cc3Cl)c2)c1,0.33
COc1ccc(NC(=O)c2sc3nc(C)c(C(=O)Nc4ccc(C)cc4C)c(-c4sccc4C)c3c2N)cc1,-0.6
Cc1ccc(C)c(OCCN(C)C(=O)CC2COCCN2)c1 (configuration not stated),-0.27
Cc1ccc(-n2ncc3c(=O)n(Cc4cccc(C(F)(F)F)c4)cnc32)cc1C,-1.4
NC(=O)Cc1ccc(-c2ccc(C(=O)NCCN3CCCOC3=O)cc2)cc1,-0.13
Cc1ccc2oc(=O)c3cnn(CC(=O)N(C)c4ccc(F)cc4)c3c2c1,-0.62
CCC(NC(=O)c1ccc(C)c(OCCCN)c1)c1cccc(C)n1 (configuration not stated),-0.81
O=C(CC1CC1)N1CCCN(C(=O)c2ccc(O)cc2F)CC1,-2.4
Cc1cccc(Cn2c(COc3ccc(Cl)cc3)nc3ccccc32)c1,0.9
CC1(C)[C@H](C(=O)O)N2C(=O)C[C@H]2S1(=O)=O,-6.3
COc1ccc(N(CC(=O)N2CCN(c3ccc(F)cc3)CC2)S(=O)(=O)c2c(C)n[nH]c2C)cc1,-0.32
O=S(=O)(c1cccnc1)N1CCC(c2ccc3ccccc3c2)C(O)C1 (configuration not stated),-1.1
CCCCN1CCCCC1C(=O)Nc1c(C)cccc1C (configuration not stated),-1.6&-0.61
COc1ccc(Cl)cc1NC(=O)Cn1c(=O)n(-c2ccc(C)cc2)c(=O)c2ccc(C(=O)NCc3ccccc3Cl)cc21,-0.49
CC(C)c1nnc(NC(=O)c2nc(S(=O)(=O)Cc3ccccc3)ncc2Cl)s1,-1.6

# These rows are one share of the data. The share of hits here may be higher or lower than overall.
